# gsp ag: qHTS for Agonist of gsp, the Etiologic Mutation Responsible for Fibrous Dysplasia/McCune-Albright Syndrome: qHTS; gsp mutant cells, cAMP HTRF, 30 min; control for the full effect not named in the record; Potency, µM (highest dose often 76.9 µM), for inactives: at the highest dose activation (cAMP increase), actives largely listed as activators; actives 0.13% (n = 340,000); AID 624287, 2012; active = well fitted activation curve with a large enough effect; inconclusive = small, poorly fitted or top-dose-only effect, or another doubt; inactive = no such curve, though single readings can be large or run the other way; cell line not stated here;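 further: phosphodiesterase inhibitor Ro 20-1724 added with compounds to block cAMP breakdown; potency means the concentration at half of the fitted maximal effect; nearly all actives have a fitted effect of over 60% in size; about a fifth of the inactives were tested at one dose only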
#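 Cells stably selected in G418 were plated at 2000/well, grown 16-24 hr, then given compounds in DMSO with the PDE inhibitor […] (300 uM solution added) for 30 min at 37C; cAMP was read by HTRF.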
# gsp antagonist: qHTS for Antagonists of gsp, the Etiologic Mutation Responsible for Fibrous Dysplasia/McCune-Albright Syndrome: qHTS; Potency, µM (highest dose often 76.9 µM), for the others: at the highest dose activity change, negative = inhibition, hits mostly inhibitors; actives 0.4% (n = 340,000); gsp-mutant cells, cAMP HTRF, 30 min; control for the full effect not named in the record; active = falling curve of any shape with a large fitted effect; inconclusive = falling curve, mostly with a smaller effect; inactive = flat or rising curve; cell line not stated here;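 further: intracellular cAMP measured with PDE inhibitor Ro 20-1724 present during compound exposure; potency means the concentration at half of the fitted maximal effect; on the % scale 0 is the no-effect control and ±100 the full control effect; nearly all actives have a fitted effect of over 65% in size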
#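 HTRF cAMP read-out (cAMP-d2 plus anti-cAMP antibody-K in lysis buffer, 30 min RT). Before lysis, cells are exposed to compounds with […] for 30 min at 37C in DPBS containing Ca/Mg, BSA and Tween 20.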
# ClpP mod: qHTS Assay for Activators of ClpP; ATP-dependent Clp protease proteolytic subunit (Bacillus subtilis (strain 168)), P80244; purified B. subtilis ClpP, FRET peptide cleavage, 20 min; Potency, µM (series often up to 57.5 µM), for inactives: top-dose activity change, negative = active; actives 1.9% (n = 340,000); active = well fitted falling curve with a large enough effect; inconclusive = small, poorly fitted or top-dose-only effect; inactive = no such curve, though single readings can be large or run the other way; further: potency means the concentration at half of the fitted maximal effect; the source files actives as falling curves though it sought activators and does not explain the sign; nearly all actives have a fitted effect of over 65% in size; many hits overshoot -100%
# Target sequence (P80244 whole entry, looked up): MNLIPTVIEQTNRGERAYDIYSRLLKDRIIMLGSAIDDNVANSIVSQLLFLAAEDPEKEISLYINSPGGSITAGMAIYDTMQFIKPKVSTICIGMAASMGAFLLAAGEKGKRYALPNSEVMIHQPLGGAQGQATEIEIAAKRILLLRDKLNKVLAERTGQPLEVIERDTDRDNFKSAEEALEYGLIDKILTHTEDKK
#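 Purified B. subtilis ClpP, 10 microg/mL final in Tris/HCl pH8 with KCl, BSA, glycerol and Tween-20, cleaved an Abz/nitrotyrosine-quenched decapeptide. Fluorescence (ex 320, em 430) was read at 0 and 20 min at room temperature. Delta was normalized to 5.8 microM ADEP and DMSO/no-enzyme controls.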
# TRPML1 blocker: qHTS for Inhibitors of the Human Mucolipin Transient Receptor Potential 1 (TRPML1) | Mucolipin-1 (Homo sapiens), Q9GZU1 | TRPML1-inducible cells, Ca2+ dye fluorescence, FDSS; stronger effect = lower value; inhibition of EC80 agonist-evoked calcium signal | activity change, negative = inhibition, % (concentration not given with the values) | actives 0.02% (n = 390,000) | AID 624415, 2012; in the data active means activity change below about -50%; inconclusive means about -30% to -50%; inactive means above about -30%;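 further: stimulus is agonist 54-4 at its EC80 concentration; on the % scale 0 is the no-effect control and ±100 the full control effect; compound concentration not given in the record; the text of the record puts the active cut at -80%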
# Target sequence (Q9GZU1 whole entry, looked up): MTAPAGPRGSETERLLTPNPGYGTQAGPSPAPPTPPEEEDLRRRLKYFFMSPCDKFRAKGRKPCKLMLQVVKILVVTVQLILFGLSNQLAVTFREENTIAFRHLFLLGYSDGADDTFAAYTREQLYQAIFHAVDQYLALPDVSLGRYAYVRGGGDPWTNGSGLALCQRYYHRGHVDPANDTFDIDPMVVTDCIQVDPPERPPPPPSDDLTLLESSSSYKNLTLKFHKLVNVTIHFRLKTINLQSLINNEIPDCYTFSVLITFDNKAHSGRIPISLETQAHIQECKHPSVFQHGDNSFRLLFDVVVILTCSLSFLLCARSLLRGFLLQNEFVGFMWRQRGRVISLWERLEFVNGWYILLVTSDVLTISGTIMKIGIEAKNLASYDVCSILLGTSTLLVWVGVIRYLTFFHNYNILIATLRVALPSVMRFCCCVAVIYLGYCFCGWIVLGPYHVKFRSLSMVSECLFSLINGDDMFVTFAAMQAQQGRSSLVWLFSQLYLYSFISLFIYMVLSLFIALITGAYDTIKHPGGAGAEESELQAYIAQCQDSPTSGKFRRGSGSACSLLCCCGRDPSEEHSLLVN
#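 Calcium fluorescence in TRPML1-DL cells induced overnight with Tet: a 110 s read after compound pin addition, then a 110 s antagonist read after challenge with 54-4 at 4 uM final (EC80).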
# Menin-MLL FL inh: qHTS Assay for Inhibitors Targeting the Menin-MLL Interaction in MLL Related Leukemias: Competition With Fluorescein Labeled MLL-derived Peptide; Fluorescence polarization, fluorescein-MLL peptide displacement from menin; FP activity change, % at 61.4 µM; 290,000 tested, under 10 active; inconclusive = falling polarisation curve, or a change in total fluorescence; inactive = total fluorescence flat and polarisation flat or rising; no compound was filed as active; the % refers to the polarisation; negative = inhibition;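 further: % of control where 0% means no effect; inhibitors lower the polarisation; unlabelled MLL peptide was the positive control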
# TRPML1 ag: qHTS for Agonists of the Human Mucolipin Transient Receptor Potential 1 (TRPML1) | activation, % (no concentration beside the values) | Mucolipin-1 (Homo sapiens), Q9GZU1 | TRPML1-expressing cells, Ca2+ dye fluorescence, FDSS; host cell line not named in the record; reference of the full effect not given here | actives 0.12% (n = 410,000) | AID 624414, 2012; in the data active = activation above about 50%; inconclusive = about 30% to 50%; inactive = below about 30%; further: 0% is about no effect; the text of the record puts the active cut at 80%
#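 Calcium fluorescence on an FDSS kinetic reader gave the read-out. Tet-induced TRPML1-DL cells were plated overnight, dye-loaded (Ca8 with quencher, 45-90 min, room temperature, dark), then read 110 s after compound addition, and again 110 s after 4uM final 54-4 (EC80).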
# * = called active by the depositor; ? = inconclusive; . = no result given; [ ] = another dose, or the depositor's remark.
canonical_smiles,gsp ag,gsp antagonist,ClpP mod,TRPML1 blocker,Menin-MLL FL inh,TRPML1 ag
CC1CCN(c2ccc([N+](=O)[O-])cc2C(=O)N2CCOCC2)CC1,-69%[inhibitor],-14%,-5.2%,-8,.,0.0
CCC(C(=O)O)N1C(=O)c2ccccc2C1=O (configuration not stated),-5%,-1%,-1.2%,8,-2.7,1.1
CCOC(=O)c1c(/N=C/c2cc(C)ccc2O)sc2c1CCC2,-12%,4%,-2.7%,-19,?,3.4
Cc1occc1-c1nnc(SCC(=O)Nc2ccc(F)cc2)n1C,19%[15.4 µM],4%,.,-7,.,0.1
COC(=O)C(Cc1cnc(Cl)s1)(C(=O)OC)c1ccc([N+](=O)[O-])cc1,-12%,-20%,0.2%,35,3.3,2.1
O=C(C[C@@H]1C/C=C/CCCC(=O)O[C@H](c2ccccc2)CNC1=O)N[C@H](CO)Cc1ccccc1,.,2%,-0.5%,-7,.,-0.8
CCOc1ccccc1CN1CCN(Cc2csc(C(C)=O)c2)CC1CCO (configuration not stated),10%[15.4 µM],-2%,.,1,-8.4,1.4
C[C@@H]1CN([C@H](C)CO)C(=O)c2cc(NC(=O)Nc3ccc(F)cc3)ccc2O[C@@H](C)CCCCO[C@H]1CN(C)S(=O)(=O)c1ccc(Cl)cc1,.,.,-13%,11,.,-0.3
Cc1ccc2[nH]c(=O)c3cc(C(=O)NCCc4ccc(Cl)cc4)sc3c2c1,.,.,?,8,.,0.7
CNC(=O)CSc1nnnn1-c1ccc2c(c1)OCCO2,17%,9%,-1.4%,0,-0.7,0.1

# 3 of the entries above in order of their number in TRPML1 blocker, high to low.
SMILES,TRPML1 blocker
CCC(C(=O)O)N1C(=O)c2ccccc2C1=O (configuration not stated),8
CNC(=O)CSc1nnnn1-c1ccc2c(c1)OCCO2,0
Cc1occc1-c1nnc(SCC(=O)Nc2ccc(F)cc2)n1C,-7

# (cont.)
canonical_smiles,gsp ag,gsp antagonist,ClpP mod,TRPML1 blocker,Menin-MLL FL inh,TRPML1 ag
CC(C)CCN(C(=O)Nc1ccc(Cl)c(Cl)c1)C1CCN(C(C)C)CC1,.,.,0.1%,-3,.,-0.3
CCOC(=O)C(/C(N)=N/C(=O)Nc1ccccc1)=C(\C)O,-17%,-12%,0.9%,8,3.7,1.0
COc1ccc(NC(=O)Cn2nnc(C(=O)NCc3cccs3)c2N)cc1OC,-1%,13%,-1.3%,20,-1.7,0.2
CCCCn1c(CCNC(=O)c2ccco2)nc2ccccc21,-21%,0%,-0.4%,-27,.,0.1
CCCc1nc(NCc2ccccc2)c(C#N)c2c1CCCC2,-5%,11%,.,15,1.4,-0.7
COc1ccc(C(=O)N/N=C/c2cc3ccccc3[nH]c2=O)cc1,9%[15.4 µM],-24%,28µM*,15,-0.7,-0.5
Cc1ccc(/C=C2/SC(=S)N(c3ccc(S(=O)(=O)Nc4nccs4)cc3)C2=O)cc1,2%[15.4 µM],32µM*,.,-17,4.2,0.7
O=C(CN1CCN(c2ccc(O)cc2)CC1)Nc1cc([N+](=O)[O-])ccc1Cl,4%,-7%,16µM*,-22,-0.9,-0.1
O=c1c2ccccc2oc2nc3n(c(=O)c12)CCCS3,-11%,6%,-12%,-15,6.3,-0.3
Cc1nn(Cc2ccccc2Cl)c(C)c1NC(=O)c1nc2ncccn2n1,-1%,-3%,0.7%,-17,1.4,-0.5
COc1ccccc1CNC(=O)N1CCN(S(=O)(=O)c2ccccc2)CC1,-16%[15.4 µM],10%,.,-6,1.5,-0.9
COc1ccccc1NC(=O)C1=C(C)NC(=O)NC1c1ccco1 (configuration not stated),-7%,6%,1.4%,-3,4.7,-0.5
CCN(CC(=O)Nc1cc(Cl)ccc1C)C(=O)Cc1sc(C)nc1-c1ccc(F)cc1,-3%[15.4 µM],-18%,.,6,.,1.0
Cc1ccc(SCC(=O)NCC2CCCO2)cc1 (configuration not stated),-17%,14%,-4.9%,-28,5.4,0.3
Cc1ccnc(NS(=O)(=O)c2ccc(NC(=O)C(C)(C)C)cc2)n1,4%,11%,-3.2%,9,4.4,-0.1
O=[N+]([O-])c1ccc(Cl)c(S(=O)(=O)n2ccnc2)c1,?,-9%,-0.3%,.,-0.5,.
O=C(c1cn(-c2ccccc2)nc1-c1ccccc1)N1CCN(c2ccccn2)CC1,36%,-17%,?,34,2.7,1.7
COCCN(CCOC)S(=O)(=O)c1ccc(C(=O)Nc2ccncc2)cc1,-22%,-1%,0.3%,-6,2.4,-0.2
CN(Cc1ccccc1)C(=O)COC(=O)Cc1ccc(Cl)cc1,15%,14%,.,1,.,-0.9
Cc1cccnc1C(NC(=O)C1CCN(Cc2ccc(Cl)cc2)CC1)c1ccccc1 (configuration not stated),.,.,0.4%,-9,.,-0.6
CCC(C(=O)NCCCN(CC)Cc1ccccc1)n1nc(C)c2sc3ccccc3c2c1=O (configuration not stated),-38%[inhibitor],1%,-1.6%,17,-0.4,5.4
COc1ccc(OC)c(S(=O)(=O)N2CCC(C(=O)N3CCOCC3)CC2)c1,?,13%,.,-9,2.3,-0.5
Cc1ccc2cc(C#N)c(SCC(=O)N3CCCc4ccccc43)nc2c1,?,3%,-0.8%,-2,-0.7,-0.4
O=C(CN1C(=O)C2CCCCC2C1=O)Nc1nc2ccc(F)cc2s1 (configuration not stated),-3%[15.4 µM],-4%,.,-4,.,2.0
Cn1c(C(=O)NCCCN2CCCC2=O)cc2c(=O)n(C)c3ccccc3c21,19%,11%,4.2%,-7,-1.8,-0.2
Cc1ccccc1CS(=O)(=O)Cc1ccc(C(=O)NCC2CCCO2)o1 (configuration not stated),-3%,12%,-1.1%,7,0.7,0.0
CCc1ccccc1NCC(=O)Nc1ccc(Cl)c(C(F)(F)F)c1,0%,0%,0.4%,-1,8.0,1.6
NC(=O)NC(=O)COC(=O)c1cccc(S(=O)(=O)N2CCCCCC2)c1,-14%,3%,-0.5%,-9,2.6,-0.5
O=C(c1cccnc1)N1CCN(Cc2cccc(F)c2)CC1,-2%,-3%,-13%,12,2.4,1.5
O=[N+]([O-])c1ccccc1-c1cc(-c2cc(Cl)ccc2O)n[nH]1,-4%,-21%,1.9%,-4,0.7,1.1
CC1CC=CC2C1C(=O)N(Cc1ccccc1)C2c1ccc(-c2ccoc2)cc1F (configuration not stated),.,.,.,68,1.7,2.1
O=C(NCCN1CCOCC1)c1ccc(CS(=O)(=O)c2ccc(Br)cc2)o1,3%,7%,-1.8%,-5,.,0.6
Cc1cc(NC(=O)CSc2nnc(-c3cccnc3)n2N)no1,0%,4%,-2.9%,1,1.8,-0.4
O=C(Nc1nc2ccc(S(=O)(=O)N3CCCCC3)cc2s1)c1ccncc1,-4%,-31%,0.3%,-2,-0.7,-0.9
CC(C)(C)c1[nH]nc2c1C(c1ccoc1)C(C#N)=C(N)O2 (configuration not stated),-14%,1%,0.1%,-21,20,0.8
CCOC(=O)c1cc(-c2ccccc2)n(CCC(=O)NCCc2cccc(C)c2)c1C,.,.,-5.0%,6,.,-0.3
N#CC1=C2SCN(Cc3ccccc3)CN2C(=O)CC1c1ccc2c(c1)OCO2 (configuration not stated),-28%,-7%,0.8%,-2,-2.0,1.6
O=C1c2ccc3c4c(ccc(c24)C(=O)N1c1cccc(O)c1)CC3,7%,1%,.,-27,-6.1,2.0
Cc1cc(C)n(CC(=O)NNC(=O)c2ccc(NC(=O)CC#N)cc2)n1,?,8%,-1.7%,-3,.,0.0
COc1ccc(N2CCN(S(=O)(=O)CCNC(=O)c3ccco3)CC2)cc1,?,5%,-6.2%,7,.,-0.7
O=C(Nc1ccccc1)c1ccc(=O)n(Cc2cccc(Cl)c2)c1,4%[15.4 µM],.,.,-15,1.5,0.7
CCOc1cccc(/C=N/N2C(=O)CSC2=S)c1O,0%[15.4 µM],3%,0.7%,2,?,-1.1
Cc1cccnc1NC(=S)NC(=O)c1cccs1,2%,8%,14%,7,1.0,0.0
O=C(Nc1ccc(S(=O)(=O)NCCc2ccccc2)cc1)c1ccc(Br)o1,-4%,-20%,-3.8%,-4,1.7,1.4
CC(C)C[C@H]1CNC(=S)N1CC1CCCN1C[C@H](CC(C)C)N1C[C@H](CC(C)C)N(CCc2ccccc2)C1=S (some centres not stated),.,1%,1.5%,-5,.,-0.5
Cc1ccc(NC(=O)c2ccc(Cl)cc2Cl)cc1O,-4%,-22%,-2.3%,.,4.6,.
O=C(NCCCCc1ccccc1)c1cccc(NC(=O)C2CCCC2)c1,.,-17%,2.3%,-5,.,0.9
COc1ccccc1CC(=O)Nc1ccc(NC(=O)c2cccs2)cc1,0%,8%,-4.0%,12,7.1,0.2
Cc1cc(NC(=O)CSC2=Nc3ccccc3C3=NC(Cc4ccccc4)C(=O)N23)n[nH]1 (configuration not stated),3%,6%,-23%,-12,1.2,-0.4
Cc1cccc(N2CC(C(=O)Nc3ccccc3N3CCOCC3)CC2=O)c1C (configuration not stated),4%[15.4 µM],-8%,-7.2%,8,.,0.4

# More records follow.
canonical_smiles,gsp ag,gsp antagonist,ClpP mod,TRPML1 blocker,Menin-MLL FL inh,TRPML1 ag
CCc1cccc(CC)c1NC(=O)c1c(C)oc2ccc(O)c(CN3CCCC3)c12,.,.,-7.9%,-16,.,-1.3
CCOC(=O)C(C)N1C(=O)S/C(=C\c2ccc(-c3ccccc3C(=O)O)o2)C1=O (configuration not stated),1%,-10%,-2.1%,-9,?,1.0
Cc1ccn2c(C(=O)N/N=C\c3ccc4c(c3)OCO4)c(C)nc2c1,5%,20%,-22%,14,4.0,1.5
COc1ccc(NC(=O)C(C)N(c2ccc(C)cc2)S(C)(=O)=O)c(OC)c1 (configuration not stated),-42%[inhibitor],7%,1.1%,10,0.8,0.1
CCOc1ccccc1NC(=O)Cn1nnc(-c2ccc(OCC)c(OCC)c2)n1,-50%,6%,-17%,-12,5.0,1.3
CC(C)Nc1nnc(SCC(=O)Nc2ccc(F)cc2)s1,-58%[inhibitor],-1%,1.8%,17,2.5,0.5

# Compound activity: PubChem, National Center for Advancing Translational Sciences (NCATS)
